Screens: PubChem BioAssay, Broad Institute
NOMO-1 viab = NOMO-1 AML cell viability reduction, primary screen, STK33 inhibitor project, CellTiter-Glo luminescence; NOMO-1 AML viability, 72 h; inhibition, % (test concentration not listed); actives 7.5% (n = 37,000);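 active means most replicates above 80%; inconclusive means exactly half above 80%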;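 further: wells of about 30 µL received 25 nL stock; 0% = median of vehicle wells and 100% = reference inhibitor level; the first replicate is given; inactives centre near 10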
The depositor's hits bear a star. The list is partial; rates above refer to the full screens.

Screening Cc1ccc(N(CC(N)=O)S(=O)(=O)c2ccc(Cl)cc2)cc1 returned NOMO-1 viab -23.5.
For C[C@H]1CN([C@@H](C)CO)C(=O)c2cc(NC(=O)C3CCCCC3)ccc2O[C@H]1CN(C)S(=O)(=O)c1cn(C)cn1 the results were NOMO-1 viab 11.5.
`Cc1ccc(C)c(OCC(=O)Nc2cccc(Oc3ccc4c(c3)C(=O)NC4=O)c2)c1` gave NOMO-1 viab 8.9.
Screening C[C@H]1CN([C@@H](C)CO)C(=O)c2cccc(NC(=O)C3CCOCC3)c2O[C@@H]1CN(C)S(C)(=O)=O returned NOMO-1 viab -6.1.
C[C@@H]1CCCCO[C@@H](CN(C)S(=O)(=O)c2ccc(Cl)cc2)[C@@H](C)CN([C@H](C)CO)C(=O)c2cc(NC(=O)CCCCCC(=O)Nc3ccccc3N)ccc2O1 was read as NOMO-1 viab 22.9.
Cc1nc(-c2ccccc2)sc1C(=O)C1C(=O)C(=O)N(CCCN2CCOCC2)C1c1ccco1 (stereo unspecified) was read as NOMO-1 viab 23.1.
Cc1ccc(S(=O)(=O)N(C)C[C@H]2Oc3ccc(NC(=O)Nc4ccccc4)cc3C(=O)N([C@@H](C)CO)C[C@H]2C)cc1 was read as NOMO-1 viab 15.3.
`C[C@@H]1CN([C@H](C)CO)C(=O)c2cc(NS(=O)(=O)c3cn(C)cn3)ccc2O[C@@H]1CN(C)S(=O)(=O)c1ccccc1` gave NOMO-1 viab 19.8.
Screening CNC[C@@H]1Oc2ccc(NC(=O)CCC(F)(F)F)cc2CC(=O)N([C@H](C)CO)C[C@H]1C returned NOMO-1 viab -10.1.
For C[C@@H]1CN([C@H](C)CO)C(=O)c2cccc(NC(=O)c3cnccn3)c2O[C@@H]1CN(C)Cc1ccc2c(c1)OCO2 the results were NOMO-1 viab -7.1.
`C[C@H]1CN([C@@H](C)CO)C(=O)c2cc(NC(=O)Cn3cnnn3)ccc2O[C@H]1CN(C)S(=O)(=O)c1ccc(F)cc1` gave NOMO-1 viab 11.6.
`Cc1ccc(-c2csc3nc(SCC(=O)O)n(-c4ccccc4)c(=O)c23)cc1` gave NOMO-1 viab -5.9.
Screening Cc1ccc(S(=O)(=O)Nc2ccc3c(c2)C(=O)N([C@H](C)CO)C[C@H](C)[C@H](CN(C)Cc2ccc(C(=O)Nc4ccccc4N)cc2)O3)cc1 returned NOMO-1 viab inconclusive.
`C[C@H]1CN([C@@H](C)CO)C(=O)Cc2cc(NC(=O)Nc3ccc(C(F)(F)F)cc3)ccc2O[C@H]1CN(C)S(C)(=O)=O` gave NOMO-1 viab 89.7*.
For O=C(O)/C=C/c1ccc2c(-c3ccccc3)onc2c1 the results were NOMO-1 viab 12.3.
Screening C[C@@H]1CN([C@@H](C)CO)C(=O)c2cccc(NC(=O)Nc3ccc(C(F)(F)F)cc3)c2O[C@@H]1CN(C)C(=O)Nc1ccc2c(c1)OCO2 returned NOMO-1 viab 38.0.
COC(=O)CCC(=O)c1cc2cc(Br)ccc2o1 was read as NOMO-1 viab -9.5.
Cc1cccc(NCC(O)Cn2cnc3c2c(=O)n(C)c(=O)n3C)c1 (stereo unspecified) was read as NOMO-1 viab 36.5.
Screening CC(C)NC(=O)N(C)C[C@H]1OCCCC[C@@H](C)Oc2ccc(NC(=O)Nc3ccc4c(c3)OCO4)cc2C(=O)N([C@H](C)CO)C[C@@H]1C returned NOMO-1 viab 3.6.
C[C@@H]1CN([C@@H](C)CO)C(=O)Cc2cc(NC(=O)Cc3cn(C)c4ccccc34)ccc2O[C@@H]1CN(C)S(=O)(=O)c1ccc(F)cc1 was read as NOMO-1 viab 25.0.

Continued (four carried over from the part before).
COC(=O)CCC(=O)c1cc2cc(Br)ccc2o1 was read as NOMO-1 viab -9.5.
Cc1cccc(NCC(O)Cn2cnc3c2c(=O)n(C)c(=O)n3C)c1 (stereo unspecified) was read as NOMO-1 viab 36.5.
Screening CC(C)NC(=O)N(C)C[C@H]1OCCCC[C@@H](C)Oc2ccc(NC(=O)Nc3ccc4c(c3)OCO4)cc2C(=O)N([C@H](C)CO)C[C@@H]1C returned NOMO-1 viab 3.6.
C[C@@H]1CN([C@@H](C)CO)C(=O)Cc2cc(NC(=O)Cc3cn(C)c4ccccc34)ccc2O[C@@H]1CN(C)S(=O)(=O)c1ccc(F)cc1 was read as NOMO-1 viab 25.0.
C=C1C2CC[C@@]3(C)[C@H](c4ccoc4)OC(=O)C[C@]13O[C@H]1CC(=O)C(C)(C)[C@H](C(O)C(=O)OC)[C@@]21C (stereo partly specified) was read as NOMO-1 viab 28.6.
C[C@@H]1CN([C@H](C)CO)C(=O)Cc2cc(NC(=O)C3CC3)ccc2O[C@H]1CN(C)S(=O)(=O)c1ccc(F)cc1 was read as NOMO-1 viab -3.8.
Cc1cc(C(=O)Nc2cccc3c2O[C@@H](CN(C)CC2CC2)[C@@H](C)CN([C@@H](C)CO)C3=O)n(C)n1 was read as NOMO-1 viab 35.8.
For C[C@H](CO)N1C[C@H](C)[C@@H](CN(C)C(=O)NC2CCCCC2)Oc2c(NC(=O)Nc3ccc4c(c3)OCO4)cccc2C1=O the results were NOMO-1 viab 29.3.
C[C@@H]1CN([C@@H](C)CO)C(=O)c2cccc(NC(=O)Nc3ccccc3)c2O[C@@H]1CN(C)Cc1ccc(C(F)(F)F)cc1 was read as NOMO-1 viab inconclusive.
For O=C(COc1ccc([N+](=O)[O-])cc1)Nc1cccc(-c2nc3cc(Cl)ccc3o2)c1 the results were NOMO-1 viab 19.9.
`O=C(CSc1nnc(-c2ccco2)o1)Nc1cccc2ccccc12` gave NOMO-1 viab -9.9.
`COc1ccc(NC(=O)N(C)C[C@H]2Oc3ccc(NC(=O)Nc4c(C)noc4C)cc3C(=O)N([C@H](C)CO)C[C@@H]2C)cc1` gave NOMO-1 viab 5.0.
For C[C@H](CO)N1C[C@H](C)[C@H](CN(C)CC2CC2)Oc2ccc(NC(=O)C3CCCCC3)cc2C1=O the results were NOMO-1 viab 4.0.
`C[C@@H]1CN([C@H](C)CO)C(=O)c2cccc(NC(=O)C3CC3)c2O[C@@H]1CN(C)C(=O)Nc1ccc2c(c1)OCO2` gave NOMO-1 viab 7.9.
For C[C@@H]1CN([C@@H](C)CO)C(=O)c2cccc(NC(=O)C3CCCCC3)c2O[C@@H]1CN(C)Cc1ccc(Oc2ccccc2)cc1 the results were NOMO-1 viab 45.5.
`C[C@H](CO)N1C[C@H](C)[C@H](CN(C)CC2CCCCC2)Oc2c(NC(=O)NC3CCCCC3)cccc2C1=O` gave NOMO-1 viab 34.9.
CCOc1ccc(NC(=O)C2CC=CCC2C(=O)O)cc1 (stereo unspecified) was read as NOMO-1 viab -9.6.
O=C(COc1ccc(Cl)cc1Cl)Nc1cc(C(=O)O)cc(C(=O)O)c1 was read as NOMO-1 viab 15.4.
For COc1ccccc1OCC(=O)Nc1cc(-c2nc3ccccc3[nH]2)ccc1C the results were NOMO-1 viab 51.3.
`COc1ccc(CN(C)C[C@H]2Oc3c(NC(=O)NC(C)C)cccc3C(=O)N([C@H](C)CO)C[C@H]2C)cc1` gave NOMO-1 viab 2.4.
For C[C@@H]1CN([C@@H](C)CO)C(=O)c2cccc(NC(=O)Nc3ccc(F)cc3)c2O[C@@H]1CN(C)C(=O)Nc1ccc(F)cc1 the results were NOMO-1 viab 28.1.
Screening COc1cc(O)cc2occ(-c3ccc(O)cc3)c(=O)c12 returned NOMO-1 viab 19.7.
COc1ccc2nc(SCC(=O)Nc3ccc4c(c3)OCCO4)[nH]c2c1 was read as NOMO-1 viab 9.7.
`COc1ccc(CN(C)C[C@@H]2Oc3c(NC(=O)c4ccc(-c5nccs5)cc4)cccc3C(=O)N([C@@H](C)CO)C[C@H]2C)cc1` gave NOMO-1 viab 72.0.
Cc1cc(=O)[nH]c(SCCOc2c(C)ccc(C)c2Cl)n1 was read as NOMO-1 viab 35.2.
`NNC(=O)Cn1c2ccccc2c2ccccc21` gave NOMO-1 viab 100.2*.
`C[C@@H]1CN([C@H](C)CO)C(=O)Cc2cc(NC(=O)C3CCCCC3)ccc2O[C@H]1CN(C)Cc1ccc2c(c1)OCO2` gave NOMO-1 viab 22.2.
`CNC[C@H]1Oc2c(NC(=O)Nc3ccccc3)cccc2C(=O)N([C@@H](C)CO)C[C@@H]1C` gave NOMO-1 viab 22.9.
Screening Cc1noc(C)c1NC(=O)Nc1cccc2c1O[C@@H](CN(C)Cc1ccc(C(=O)Nc3ccccc3N)cc1)[C@@H](C)CN([C@@H](C)CO)C2=O returned NOMO-1 viab 13.8.
Screening COc1ccc(-c2nnc(SCC(=O)Nc3cccc(C)c3C)o2)cc1 returned NOMO-1 viab -10.6.
Cc1cc(-n2c(SCC(=O)Nc3ccccc3)nnc2-c2cccnc2)ccc1Cl was read as NOMO-1 viab 30.7.
For O=C1c2c(O)cc(O)cc2O[C@@H](c2ccc(O)cc2)[C@H]1[C@@H]1C(=O)c2c(O)cc(O)cc2O[C@H]1c1ccc(O)cc1 the results were NOMO-1 viab 58.1.
Screening Cc1ccc(S(=O)(=O)N(C)C[C@@H]2Oc3ccc(NS(=O)(=O)c4ccc(F)cc4)cc3C(=O)N([C@H](C)CO)C[C@@H]2C)cc1 returned NOMO-1 viab 12.5.
`Cc1ccc(S(=O)(=O)N(C)C[C@@H]2Oc3c(NC(=O)c4ccncc4)cccc3C(=O)N([C@H](C)CO)C[C@H]2C)cc1` gave NOMO-1 viab 18.1.
Screening C[C@@H]1CCCCO[C@H](CN(C)C(=O)Nc2ccc(F)cc2)[C@@H](C)CN([C@H](C)CO)C(=O)c2cc(NC(=O)c3ccncc3)ccc2O1 returned NOMO-1 viab 1.2.
COc1ccc(S(=O)(=O)Nc2ccc3c(c2)C(=O)N([C@H](C)CO)C[C@H](C)[C@H](CN(C)CC2CC2)O3)cc1 was read as NOMO-1 viab 0.3.
C[C@@H]1CN([C@@H](C)CO)C(=O)c2cc(NC(=O)CCCN(C)C)ccc2O[C@@H]1CN(C)S(=O)(=O)c1cccs1 was read as NOMO-1 viab -0.6.
C[C@@H]1CN([C@H](C)CO)C(=O)Cc2cc(NC(=O)Cc3cn(C)c4ccccc34)ccc2O[C@@H]1CN(C)Cc1ccccc1 was read as NOMO-1 viab 107.3*.
Screening Cc1cc(C(=O)Nc2cccc3c2O[C@@H](CN(C)Cc2ccc(C(=O)Nc4ccccc4N)cc2)[C@H](C)CN([C@@H](C)CO)C3=O)n(C)n1 returned NOMO-1 viab 89.1*.
`Cc1[nH]c2ccccc2c1C(=O)CSc1nc2sc(C)c(C)c2c(=O)n1-c1ccccc1` gave NOMO-1 viab 100.0*.
`C[C@H]1CN([C@@H](C)CO)C(=O)c2cccc(NC(=O)C3CC3)c2O[C@H]1CN(C)C(=O)Nc1ccc2c(c1)OCO2` gave NOMO-1 viab 11.5.
Screening C[C@H](CO)N1C[C@H](C)[C@@H](CN(C)C(=O)Nc2ccc(F)cc2)Oc2c(NC(=O)C3CCOCC3)cccc2C1=O returned NOMO-1 viab 0.3.
For C[C@@H]1CN([C@@H](C)CO)C(=O)c2cccc(NC(=O)c3cnccn3)c2O[C@H]1CN(C)S(C)(=O)=O the results were NOMO-1 viab -7.4.
For Cc1ccc(S(=O)(=O)Nc2ccc3c(c2)C(=O)N([C@@H](C)CO)C[C@H](C)[C@H](CN(C)C(=O)Nc2ccc(C(F)(F)F)cc2)O3)cc1 the results were NOMO-1 viab 4.2.
For Cc1cc(O)c(C=O)c2c1C(=O)Oc1c(C)c(O)c3c(c1O2)C(O)OC3=O (stereo unspecified) the results were NOMO-1 viab -1.5.
`CC(C)NC(=O)N(C)C[C@H]1Oc2ccc(NC(=O)Nc3cccc4ccccc34)cc2CC(=O)N([C@H](C)CO)C[C@H]1C` gave NOMO-1 viab 2.5.
`CCCc1cc(=O)oc2cc(OC(=O)/C=C/c3cccs3)ccc12` gave NOMO-1 viab 32.9.
Screening COc1ccc([N+](=O)[O-])cc1NC(=O)CN(c1ccc(C)cc1)S(C)(=O)=O returned NOMO-1 viab 1.2.
`C[C@H]1CN([C@@H](C)CO)C(=O)c2cccc(NC(=O)C3CCCCC3)c2O[C@H]1CN(C)C(=O)Nc1cccc2ccccc12` gave NOMO-1 viab 39.3.
Screening CCn1c2ccccc2c2cc(NC(=O)Cc3ccccc3[N+](=O)[O-])ccc21 returned NOMO-1 viab -19.3.
For CSc1ncc(Cl)c(C(=O)Nc2nnc(SCc3ccccc3)s2)n1 the results were NOMO-1 viab 8.4.
O=C(CSc1nnc(-c2ccccc2Cl)n1-c1ccccc1)Nc1ccccc1Cl was read as NOMO-1 viab 27.2.
For O=C(COc1cccc(NC(=O)c2ccc([N+](=O)[O-])cc2)c1)c1ccc(F)cc1 the results were NOMO-1 viab 45.7.
C[C@H]1CN([C@@H](C)CO)C(=O)c2cc(NC(=O)CCCN(C)C)ccc2O[C@@H]1CN(C)S(=O)(=O)c1cn(C)cn1 was read as NOMO-1 viab 7.6.
`Cc1ccc(OC(=O)OCSc2nn[nH]n2)cc1` gave NOMO-1 viab 119.3*.
Screening COc1ccc(S(=O)(=O)N(C)C[C@H]2Oc3c(NC(=O)c4cc(C)nn4C)cccc3C(=O)N([C@@H](C)CO)C[C@H]2C)cc1 returned NOMO-1 viab 10.3.
COc1ccc(NC(=O)Nc2cccc3c2O[C@@H](CN(C)C(=O)Nc2ccccc2)[C@H](C)CN([C@@H](C)CO)C3=O)cc1 was read as NOMO-1 viab 22.8.
COc1ccc(NC(=O)Nc2cccc3c2O[C@H](CN(C)C(=O)Nc2ccc(F)cc2)[C@@H](C)CN([C@@H](C)CO)C3=O)cc1 was read as NOMO-1 viab 11.8.
Screening Cc1noc(C)c1NC(=O)N(C)C[C@@H]1Oc2c(NC(=O)NC3CCCCC3)cccc2C(=O)N([C@@H](C)CO)C[C@H]1C returned NOMO-1 viab 11.2.

Reprinted at random: 3 records from the list, in no set order.
For Cc1cc(O)c(C=O)c2c1C(=O)Oc1c(C)c(O)c3c(c1O2)C(O)OC3=O (stereo unspecified) the results were NOMO-1 viab -1.5.
`Cc1ccc(OC(=O)OCSc2nn[nH]n2)cc1` gave NOMO-1 viab 119.3*.
`CCCc1cc(=O)oc2cc(OC(=O)/C=C/c3cccs3)ccc12` gave NOMO-1 viab 32.9.
